Screening data as filed in PubChem.
YB-1 expr inh: YB-1 expression inhibition; U2OS, qRT-PCR YB-1 vs CDIP delta delta Cp, 16 h; active compounds read high; zero = DMSO, each unit about twofold; delta delta Cp (YB-1 minus CDIP) (concentration not given with the values); 0.37% of 30,000 active; AID 434959;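 active means delta delta Cp rounded down to an integer at or above 3, about 3 SD of DMSO wells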;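 further: higher means less YB-1 transcript or more CDIP transcript relative to DMSO; stock transfer was 100 nL into about 100 µL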
Hedgehog inh: Sonic Hedgehog pathway inhibition; 2.1% of 22,000 active; inhibition, % (concentration not given with the values); Shh-LIGHT2 Gli-luciferase reporter, 30 h;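 active means replicate mean of 65% or more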;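 further: pathway switched on by Shh-conditioned medium diluted 1 in 25 in low serum; 100 nL library stock added to about 40 µL; 0% = median of neutral wells and 100% = positive control level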
PD-1 reversal: activators reversing PD-1 mediated T-cell inhibition. primary human CD4 T cells, PD-L1 beads, CellTiter-Glo 96 h. activation, % (concentration not given with the values). 29,000 tested, under 10 active. AID 2316;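 active means replicate mean of 50% or more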;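 further: 0% = median vehicle wells and 100% = positive control; 100 nL library stock added to about 50 µL; numbers are from one replicate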
MITF inh: blocks MITF activity; TRPM1 promoter luciferase, luminescence, 24 h; inhibition, % (no concentration beside the values); 0.28% of 37,000 active;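 active means most replicates at 85% or more, or half of them and the mean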;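 further: human melanocyte line stably carrying TRPM1 promoter luciferase reporter; 0% = vehicle wells and 100% = a positive control; the first replicate is given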
Numbers without * were called inactive; nt = no result given. Some of the compounds tested; the hit share may differ from the screen's.

Every second line gives: YB-1 expr inh, Hedgehog inh, PD-1 reversal, MITF inh
CC(=O)c1ccc(NC(=O)COc2ccccc2C(=O)Nc2sc3c(c2C#N)CCCC3)cc1
  nt, nt, 1.2, -45.6
Cc1noc(C)c1S(=O)(=O)Nc1ccc2c(c1)C(=O)N([C@@H](C)CO)C[C@@H](C)[C@H](CN(C)C(=O)NC(C)C)O2
  0.0582, nt, nt, 8.1
C[C@@H]1CN([C@@H](C)CO)C(=O)c2cc(NC(=O)CCCCCC(=O)Nc3ccccc3N)ccc2O[C@H]1CN(C)S(=O)(=O)c1ccccc1
  0.0151, nt, 0.3, 0.2
Cc1ccc(S(=O)(=O)Nc2ccc3c(c2)C(=O)N([C@H](C)CO)C[C@@H](C)[C@H](CN(C)C(=O)Nc2ccc4c(c2)OCO4)O3)cc1
  -0.12, nt, nt, -4.8
C[C@@H]1CN([C@@H](C)CO)C(=O)Cc2cc(NS(=O)(=O)c3ccc(F)cc3)ccc2O[C@@H]1CN(C)S(=O)(=O)c1cccs1
  -0.281, -21.5, -2.0, -11.6
COc1ccc(C2CC(=O)c3ccccc3O2)cc1 (stereo not drawn)
  -0.499, -12.9, 0.5, -81.3
C[C@@H]1CN([C@H](C)CO)C(=O)Cc2cc(N(C)C)ccc2O[C@H]1CN(C)S(=O)(=O)c1cn(C)cn1
  0.261, 1.2, 2.0, -4.4
C[C@H]1[C@H]2OC3=C(C(=O)OC3(C)O)C(=O)[C@]1(C)[C@H]1CCCC[C@]1(O)[C@H]2O (stereo partly drawn)
  0.503, 4.4, -1.7, -10.6
COc1ccc(S(=O)(=O)N(C)C[C@H]2OCCCC[C@@H](C)Oc3ccc(NC(=O)Nc4ccc(F)cc4)cc3C(=O)N([C@H](C)CO)C[C@@H]2C)cc1
  0.0688, -18.5, -0.4, 7.2
C[C@H]1CN([C@@H](C)CO)C(=O)c2cc(NC(=O)CCN3CCOCC3)ccc2O[C@H]1CN(C)C(=O)Nc1ccccc1
  0.303, -22.5, 1.0, 7.2
C[C@@H]1CCCCO[C@@H](CN(C)C(=O)C2CCCCC2)[C@@H](C)CN([C@H](C)CO)C(=O)c2cc(N(C)C)ccc2O1
  -0.246, -1.0, -1.7, 7.1
C[C@@H]1CN([C@@H](C)CO)C(=O)c2cccc(NC(=O)C3CCOCC3)c2O[C@@H]1CN(C)C
  -0.482, -60.1, 1.0, 2.5
C[C@@H]1CN([C@H](C)CO)C(=O)c2cc(NC(=O)Cc3cn(C)c4ccccc34)ccc2O[C@H]1CN(C)S(=O)(=O)c1ccc(Cl)cc1
  0.221, nt, 0.8, -4.5
C[C@@H]1CCCCO[C@@H](CN(C)S(=O)(=O)c2cn(C)cn2)[C@@H](C)CN([C@H](C)CO)C(=O)c2cc(NC(=O)c3ccccc3)ccc2O1
  -0.0986, nt, 0.7, -11.3
Cc1noc(-c2ccccc2OC(=O)c2ccccc2)n1
  0.00869, 18.3, 0.0, -16.2
Cc1cc(C(=O)Nc2cccc3c2O[C@@H](CN(C)C(=O)NC(C)C)[C@H](C)CN([C@@H](C)CO)C3=O)n(C)n1
  0.306, 8.3, nt, -5.9
C[C@H](CO)N1C[C@H](C)[C@H](CN(C)C(=O)NC2CCCCC2)Oc2ccc(NS(=O)(=O)c3ccccc3)cc2C1=O
  -0.396, nt, -1.8, 2.4
CNC[C@H]1OCCCC[C@@H](C)Oc2ccc(NC(=O)Nc3ccccc3)cc2C(=O)N([C@H](C)CO)C[C@@H]1C
  0.0408, -11.6, nt, -10.4
C[C@H]1CN([C@@H](C)CO)C(=O)Cc2cc(NS(=O)(=O)c3cn(C)cn3)ccc2O[C@H]1CN(C)S(=O)(=O)c1ccc(Cl)cc1
  -0.263, 10.8, 2.3, -0.2
CC(C)NC(=O)Nc1cccc2c1O[C@@H](CN(C)Cc1ccccc1)[C@@H](C)CN([C@H](C)CO)C2=O
  -0.429, -11.6, 1.6, 3.8

Continuation:
Every second line gives: YB-1 expr inh, Hedgehog inh, PD-1 reversal, MITF inh
C[C@@H]1CN([C@H](C)CO)C(=O)c2cccc(NC(=O)CCCCCC(=O)Nc3ccccc3N)c2O[C@@H]1CN(C)Cc1ccc(-c2ccccc2)cc1
  0.0216, nt, -0.2, 4.2
CC(C)NC(=O)N(C)C[C@H]1Oc2ccc(NC(=O)Nc3ccc(C(F)(F)F)cc3)cc2CC(=O)N([C@H](C)CO)C[C@H]1C
  -0.19, 21.1, 0.7, 13.7
Cc1noc(C)c1S(=O)(=O)N(C)C[C@H]1Oc2ccc(NS(=O)(=O)c3cccs3)cc2CC(=O)N([C@@H](C)CO)C[C@H]1C
  0.12, -17.9, -0.3, -19.3
C[C@@H]1CN([C@@H](C)CO)C(=O)c2cccc(NS(=O)(=O)c3ccc(Cl)cc3)c2O[C@H]1CN(C)C(=O)Nc1ccc(C(F)(F)F)cc1
  0.098, 34.2, 2.6, -3.9
COc1cccc(N(CC(=O)Nc2ccc(I)cc2C)S(C)(=O)=O)c1
  nt, nt, 1.6, 14.0
CC(C)NC(=O)N(C)C[C@H]1Oc2c(NC(=O)Nc3ccccc3)cccc2C(=O)N([C@@H](C)CO)C[C@@H]1C
  0.117, -6.4, nt, 1.2
COC(=O)C1=C(C)NC(C)=C(C(=O)OC(C)C)C1c1cccc2nonc12 (stereo not drawn)
  0.298, -3.8, nt, -2.2
C[C@H]1CN([C@@H](C)CO)C(=O)Cc2cc(NS(=O)(=O)c3cccs3)ccc2O[C@@H]1CN(C)S(C)(=O)=O
  -0.0925, -3.5, nt, -10.0
CCOC(=O)c1sc2ncn(CC(=O)Nc3ccc(F)c(Cl)c3)c(=O)c2c1C
  nt, nt, 1.3, -22.2
C[C@H]1CN([C@@H](C)CO)C(=O)c2cc(NS(=O)(=O)c3cccs3)ccc2O[C@@H]1CN(C)C
  0.357, 7.3, 1.9, -7.2
COC(=O)CN(c1cc(Cl)ccc1OC)S(C)(=O)=O
  nt, nt, 3.9, -2.3
COC(=O)Nc1nc2ccc(Sc3ccccc3)cc2[nH]1
  -0.299, -10.6, nt, -3.3
Cc1noc(C)c1S(=O)(=O)Nc1ccc2c(c1)C(=O)N([C@@H](C)CO)C[C@H](C)[C@@H](CN(C)Cc1ccc(-c3ccccc3)cc1)O2
  0.0799, -10.8, nt, 9.7
Cc1cc([N+](=O)[O-])ccc1NC(=O)CSc1nnc(-c2ccc(Cl)cc2Cl)n1C
  nt, nt, -0.9, 26.8
Nc1ccc(-c2nc3cc(Cl)ccc3o2)c(O)c1
  0.163, -105.9, -2.4, 4.6
COc1ccc(S(=O)(=O)N(C)C[C@@H]2Oc3c(NC(=O)Nc4ccc(C(F)(F)F)cc4)cccc3C(=O)N([C@@H](C)CO)C[C@@H]2C)cc1
  -0.125, -29.3, -1.4, -17.0
C[C@@H]1CN([C@H](C)CO)C(=O)Cc2cc(NC(=O)c3ccncc3)ccc2O[C@@H]1CN(C)C
  0.104, 0.7, -0.3, -10.0
COc1ccc(NC(=O)c2ccco2)cc1NC(=O)COc1cc(C)c(Cl)c(C)c1
  nt, nt, -11.4, 35.3
CC1CCc2c(sc3ncnc(SCCOc4ccccc4)c23)C1 (stereo not drawn)
  nt, nt, 3.6, -49.6
C[C@H]1CN([C@@H](C)CO)C(=O)c2cc(NC(=O)Nc3cccc4ccccc34)ccc2O[C@@H]1CN(C)S(=O)(=O)c1cccs1
  -0.162, nt, -0.9, 4.8

Next section:
Every second line gives: YB-1 expr inh, Hedgehog inh, PD-1 reversal, MITF inh
CN(CC(=O)Nc1ccccc1-c1ccccc1)S(=O)(=O)c1cc(Cl)ccc1Cl
  nt, nt, 0.2, 5.7
C=C1C(=O)OC2C3=C(C)C(=O)CC3C(C)CC(O)C12 (stereo not drawn)
  0.483, -35.9, -3.9, -6.8
COc1ccc(C(C)=O)cc1CSc1nnc(-c2ccccc2O)n1-c1ccccc1
  nt, nt, 0.1, 2.8
C[C@H](CO)N1C[C@H](C)[C@H](CN(C)C(=O)Nc2ccccc2)Oc2ccc(NC(=O)Nc3ccc4c(c3)OCO4)cc2CC1=O
  0.253, -22.2, 3.5, -13.2
C[C@@H]1CN([C@@H](C)CO)C(=O)c2cc(NC(=O)C3CCCCC3)ccc2O[C@@H]1CN(C)Cc1ccc(C(=O)O)cc1
  -0.159, 11.0, 0.7, 1.3
CCn1cc(C(=O)O)c(=O)c2cnc(N3CCCC3)nc21
  -0.495, -2.5, nt, -7.1
Cc1noc(C)c1NC(=O)N(C)C[C@@H]1Oc2c(NC(=O)c3nc4ccccc4s3)cccc2C(=O)N([C@H](C)CO)C[C@@H]1C
  -0.801, -1.7, -0.6, -0.5
C[C@H]1CN([C@@H](C)CO)C(=O)c2cccc(NS(=O)(=O)c3cn(C)cn3)c2O[C@@H]1CN(C)C(=O)Nc1cccc2ccccc12
  -0.671, -12.9, -1.4, -2.8
COc1ccc(C#N)cc1Br
  0.343, -38.2, 2.7, -7.6
c1ccc(-c2nc(C34CC5CC(CC(C5)C3)C4)co2)cc1
  0.0373, -28.7, -0.5, -23.4
Cc1nnc(SCC(=O)c2ccc3c(c2)OCCO3)s1
  nt, nt, -0.2, -95.0
C[C@H](CO)N1C[C@H](C)[C@H](CN(C)S(=O)(=O)c2cn(C)cn2)Oc2c(NC(=O)c3cnccn3)cccc2C1=O
  -0.73, 9.9, -0.7, -11.5
CC(C)(C)c1ccc(S(=O)(=O)NCC(=O)Nc2ccc3c(c2)OCCO3)cc1
  nt, nt, 1.7, 11.9
CCN1CCN(c2c(Cl)cccc2NC(=O)c2ccc(-c3ccccc3[N+](=O)[O-])o2)CC1
  nt, nt, -3.4, -18.6
CC(C)NC(=O)N(C)C[C@H]1Oc2c(NS(=O)(=O)c3cccs3)cccc2C(=O)N([C@H](C)CO)C[C@H]1C
  -0.242, -35.4, 0.8, -2.1
CCN1CCC[C@H]1CNC(=O)c1cc(S(N)(=O)=O)ccc1OC
  0.205, -38.4, nt, 18.8
C[C@H]1CN([C@@H](C)CO)C(=O)c2cccc(NC(=O)Nc3ccccc3)c2O[C@H]1CN(C)Cc1ccncc1
  -0.164, 15.2, nt, -6.5
C[C@@H]1CN([C@H](C)CO)C(=O)Cc2cc(NC(=O)Nc3cccc4ccccc34)ccc2O[C@H]1CN(C)S(=O)(=O)c1ccc(Cl)cc1
  0.113, 11.8, -3.4, 22.2
O=C(NCCCn1ccnc1)c1cnn2c(C(F)(F)F)cc(-c3ccccc3)nc12
  nt, nt, -3.7, -22.6
CNC[C@@H]1Oc2c(NC(=O)Nc3ccccc3)cccc2C(=O)N([C@@H](C)CO)C[C@H]1C
  -0.115, -8.0, nt, 6.7

New compounds follow.
Every second line gives: YB-1 expr inh, Hedgehog inh, PD-1 reversal, MITF inh
C[C@H]1CN([C@@H](C)CO)C(=O)c2cc(NS(=O)(=O)c3ccc(Cl)cc3)ccc2O[C@@H]1CN(C)C(=O)NC1CCCCC1
  0.144, 12.9, -0.7, -2.5
C[C@H]1CN([C@@H](C)CO)C(=O)Cc2cc(NC(=O)NC3CCCCC3)ccc2O[C@H]1CN(C)Cc1ccc(C(=O)Nc2ccccc2N)cc1
  -0.344, nt, 0.7, 24.3
Cc1cccc(NC(=O)c2ccc(OCC(=O)Nc3ccccc3)cc2)c1C
  nt, nt, 0.7, 1.7
C[C@@H]1CN([C@H](C)CO)C(=O)Cc2cc(NS(=O)(=O)c3ccc(Cl)cc3)ccc2O[C@H]1CN(C)C(=O)Nc1ccccc1
  0.452, -10.0, -0.1, -7.7
COc1ccc(S(=O)(=O)N(C)C[C@H]2Oc3c(NC(=O)C4CCCCC4)cccc3C(=O)N([C@@H](C)CO)C[C@@H]2C)cc1
  -0.573, 12.4, nt, -7.9
Cc1ccc(-c2nnc3c4ccccc4c(C)nn23)cc1S(=O)(=O)N(C)CCO
  nt, nt, -1.4, -127.4
CNC(=O)c1ccc(Oc2ccc(C(=O)NC)cc2)cc1
  0.038, nt, 0.9, 2.4
COc1ccc(NC(=O)N(C)C[C@H]2Oc3ccc(NC(=O)CCC(F)(F)F)cc3C(=O)N([C@H](C)CO)C[C@H]2C)cc1
  -0.22, 13.4, -0.3, -7.8
Cc1ccc(S(=O)(=O)N(C)C[C@@H]2Oc3ccc(NC(=O)CCC(F)(F)F)cc3CC(=O)N([C@H](C)CO)C[C@@H]2C)cc1
  0.117, -141.6, -0.3, 15.5
CC(C)NCC(O)c1ccc2ccccc2c1 (stereo not drawn)
  0.0574, 0.0, nt, 2.2
COc1ccc(C)cc1S(=O)(=O)N(C)CC(=O)Nc1cccc([N+](=O)[O-])c1
  nt, nt, 0.7, -12.7
S=c1nc(-c2ccco2)n(Cc2ccccc2)c(=S)n1C(=NCc1ccccc1)c1ccco1
  -0.315, 11.4, -0.6, -4.1
O=C(Nc1ccc(S(=O)(=O)Nc2ccccn2)cc1)c1cc2ccccc2oc1=O
  nt, nt, -1.0, -23.0
COc1ccc(-c2cnc3c(-c4ccsc4)cnn3c2)cc1
  -0.362, 6.9, 5.0, 26.7
CC(C)NC(=O)N(C)C[C@@H]1Oc2ccc(NC(=O)Cn3cnnn3)cc2CC(=O)N([C@@H](C)CO)C[C@@H]1C
  0.234, 17.7, 0.8, -2.5

An excerpt from above with just MITF inh.
mol	MITF inh
S=c1nc(-c2ccco2)n(Cc2ccccc2)c(=S)n1C(=NCc1ccccc1)c1ccco1	-4.1
O=C(Nc1ccc(S(=O)(=O)Nc2ccccn2)cc1)c1cc2ccccc2oc1=O	-23.0
